Rce1 inh: yeast Rce1p protease inhibitors, primary screen, biochemical, fluorescence, cell-free homogeneous; CAAX prenyl protease 2 (Saccharomyces cerevisiae (strain ATCC 204508 / S288c)), Q03530; yeast membranes, quenched prenylated peptide cleavage fluorescence; calls only; 290,000 compounds, 0.27% hits; AID 2563, 2010;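 active means fall in fluorescence gain of 50% or more versus controls, with final raw signal at or below 3038400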;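 further: plate controls were neutral control wells for no effect and wells lacking membranes for full effect; tested at 10 µM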
MT1-MMP act inh: blockers of MT1-MMP proenzyme processing, primary screen, HT1080 RFP-PRO-GFP cells, GFP/RFP fluorescence; GFP/RFP ratio change, % at 20 µM; Matrix metalloproteinase-14 (Homo sapiens), P50281; AID 651647, 2012; 360,000 compounds, 0.061% hits; GFP/RFP ratio fluorescence, overnight; percent of plate control window, DMSO zero;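 active means GFP/RFP ratio change of at least 30% with cell ATP level not reduced by more than half and red fluorescence within 50% of control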; further: strong numbers were not always called active
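Assay system: RFP-PRO-GFP reporter HT1080 cells; read-out basis: GFP/RFP fluorescence ratio; benchmarks: DMSO wells and RFP-L50D-GFP cells; doses: 20 µM single dose, 1% DMSO; schedule: overnight cell settling, then overnight compound exposure, 37 °C, 5% CO2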
CSC inhib: cancer stem cell viability inhibitors, primary screen, luminescence; cancer stem cell-like cells viability; inhibition, % at 7.5 µM; 300,000 compounds, 1.1% hits; AID 2717, 2010;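 active means mean at 75% or more and at least half the replicates too; tested in HMLE shEcad cells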;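 further: 0% = median of negative and 100% = median of positive control wells; the first replicate is given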
HIV Env fusion: inhibitors of HIV-1 Env-driven cell-cell fusion, primary screen, HeLa-JRFL effector, CEM21 target cells, luciferase; inhibition, % at 12.3 µM; 360,000 compounds, 1.1% hits;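 active means mean replicate inhibition score of at least 50 and every replicate individually at or above 50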;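 further: 0% = plate neutral controls and 100% = maraviroc near 300 nM; one replicate is shown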
PABP FP inh: PABP poly(A) RNA binding inhibitors, primary screen, biochemical, fluorescence polarization, uHTS; Polyadenylate-binding protein 1 (Homo sapiens), P11940; inhibition, % at 35 µM; 290,000 compounds, 1% hits;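 active means 50% or more with normal probe brightness, or confirmed in later tests; about a fifth of its hits are not listed in these tables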;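 further: calls also rest on retests at 20 µM and on dose response follow-up; controls were probe without protein and protein plus probe with vehicle; some compounds called inactive have numbers as strong as hits; many hits fall short of the cut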
Target sequence (P11940 whole entry, looked up): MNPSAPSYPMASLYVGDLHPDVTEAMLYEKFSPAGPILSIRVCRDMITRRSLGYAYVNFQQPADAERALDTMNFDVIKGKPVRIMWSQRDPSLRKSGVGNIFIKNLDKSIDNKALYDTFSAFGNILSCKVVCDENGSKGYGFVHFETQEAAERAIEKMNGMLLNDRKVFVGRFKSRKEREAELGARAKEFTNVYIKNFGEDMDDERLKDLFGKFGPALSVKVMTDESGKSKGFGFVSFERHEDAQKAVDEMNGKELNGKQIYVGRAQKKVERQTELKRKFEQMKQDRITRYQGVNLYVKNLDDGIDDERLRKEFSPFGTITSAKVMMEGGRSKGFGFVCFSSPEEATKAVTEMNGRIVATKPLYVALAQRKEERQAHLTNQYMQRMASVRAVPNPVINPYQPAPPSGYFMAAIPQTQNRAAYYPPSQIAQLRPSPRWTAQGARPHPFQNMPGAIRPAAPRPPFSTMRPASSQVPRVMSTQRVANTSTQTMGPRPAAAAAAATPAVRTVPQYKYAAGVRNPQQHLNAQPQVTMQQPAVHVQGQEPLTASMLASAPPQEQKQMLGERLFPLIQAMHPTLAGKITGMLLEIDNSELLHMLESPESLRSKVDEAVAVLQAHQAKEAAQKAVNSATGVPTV
eIF4H inh: human eIF4H binding inhibitors, primary screen, translation initiation inhibitor project, biochemical, uHTS, fluorescence polarization; eIF4H fluorescence polarization binding assay; inhibition, % at 35 µM; 290,000 compounds, 0.94% hits; AID 2012, 2009;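 active means 50% or more with normal probe brightness, or confirmed in later tests; about a fifth of its hits are not listed in these tables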;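 further: calls also rest on retests at 20 µM and on dose response follow-up; 0% = protein and probe with vehicle and 100% = probe without protein; strong numbers were not always called active; many hits fall short of the cut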
Yeast UUG start: modulators of yeast start codon fidelity, primary screen, whole organism, S. cerevisiae, single point, plate reader; S. cerevisiae UUG-firefly luciferase reporter, luminescence/redox ratio; activity score, % at 18.7 µM; 350,000 compounds, 0.13% hits;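 active means replicate mean at a twofold rise or more, about +100% in these data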;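 further: firefly luciferase made from a UUG start codon reports start codon fidelity; reporter light over untreated wells divided by growth signal over untreated wells; some hits fall short of that in this replicate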
MT1-MMP act inh RFP: recorded beside MT1-MMP act inh, whose call it bears; RFP signal change, %; measured here: RFP expression control read;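 0 = vehicle wells; hits needed this value within 50% of zero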
An asterisk follows results filed as active; i = inactive; . = no result given; & = joins results of further samples.

SMILES | Rce1 inh | MT1-MMP act inh | MT1-MMP act inh RFP | CSC inhib | HIV Env fusion | PABP FP inh | eIF4H inh | Yeast UUG start
COc1ccc(NC(=O)CN(C)C(=O)c2ccc3c(c2)S(=O)(=O)N=C2CCCCCN23)cc1 | i | -1.1 | 0.3 | -10.4 | . | 7.2 | -1.2 | 2.0
CCNC(=S)N(CCc1c(C)[nH]c2ccccc12)Cc1cc(OC)c(OC)c(OC)c1 | i | 2.4 | 0.4 | -6.4 | -67.4 | 10.9 | 1.9 | -23.0
NC(=O)CSc1nnc(COc2ccccc2)n1CCc1ccccc1 | i | -3.7 | 1.5 | 0.4 | -0.6 | -11.9 | -8.3 | -30.4
O=C(NNC(=O)c1ccccc1-n1cccc1)c1ccc(Cl)c(Cl)c1 | i | -2.0 | -3.8 | -1.0 | . | 0.4 | 3.8 | -7.0
Cc1ccc(-c2cc(C(F)F)n3ncc(C(=O)Nc4ccc(S(=O)(=O)Nc5ccccc5C)cc4)c3n2)cc1 | i | 0.1 | -1.3 | 11.2 | . | 3.3 | -4.6 | -15.3
COc1ccc2c(COC(=O)c3ccc(C)c(S(=O)(=O)N4CCOCC4)c3)cc(=O)oc2c1 | . | -1.6 | -7.9 | . | -13.6 | . | . | -3.7
CCOC(=O)N1CCN(c2c(NCc3ccc(N(C)C)cc3)c(=O)c2=O)CC1 | i | 2.8 | 2.8 | 9.3 | 12.4 | -4.5 | -5.6 | -7.3
Cc1cc(C)n(-c2ccc(C(=O)N3CCC(CO)(Cc4ccccc4)CC3)cc2)n1 | i | 0.2 | -6.7 | -13.0 | -4.7 | -0.4 | 9.7 | .
COc1ccc(S(=O)(=O)NC(CC(=O)NCCc2ccc(OC)c(OC)c2)C(C)C)cc1 (configuration not stated) | i | 6.0 | -2.6 | -11.4 | -2.0 | -12.4 | 2.5 | .
COCCNC(=O)C(=O)Nc1ccc2c(c1)N(S(=O)(=O)c1cccs1)CCC2 | i | -3.0 | -13.1 | . | -16.9 | . | . | -21.6
CC1(C)CC(=O)C2=C(C1)N(CC1CCCO1)C(=O)C2(O)C(F)(F)F (configuration not stated) | i | -2.0 | 2.4 | -13.3 | -21.7 | -5.0 | -7.9 | -12.1
Cc1ccccc1NC(=O)Cn1nnc(S(=O)(=O)c2ccc(C(C)(C)C)cc2)c1N | i | 3.5 | 3.9 | 9.6 | 7.8 | -4.8 | -8.1 | -14.3
COc1ccc(OCC(=O)N2CCN(c3cccc(C(F)(F)F)c3)CC2)cc1 | i | -2.1 | -2.2 | 15.3 | 18.3 | 2.1 | -1.7 | .
C[N+]1(C)CCC(OC(=O)C(O)(c2ccccc2)C2CCCC2)C1 (configuration not stated) | i | -1.7 | 6.2 | -6.2 | . | . | . | -6.0
CC(C)(C)c1cc(C(=O)N/N=C/c2ccco2)n[nH]1 | i | 5.6 | 6.0 | . | . | 6.9 | 21.8 | -19.6
NNC(=O)c1nc(-c2ccccc2)n2c1CCCCC2 | i | -7.0 | 1.3 | -7.6 | . | -2.1 | 2.5 | -38.4
CC(C)c1ccc(C2N3CC4([N+](=O)[O-])CN2CC([N+](=O)[O-])(C3)C4(C)C)cc1 (configuration not stated) | i | -0.7 | 3.5 | -10.2 | 6.1 | -8.4 | -6.8 | .
COc1ccc(C2(CNC(=O)CCC(=O)O)CCCC2)cc1OC | i | -1.4 | -0.9 | -12.1 | -21.9 | -9.3 | 0.4 | -4.7
CC(C)(C)c1cccc(Oc2nn[nH]n2)c1 | i | 4.1 | 3.3 | -13.4 | 11.6 | -0.8 | -1.8 | -15.6
CC(C)CNC(=O)c1ccc(Cl)c(N)c1 | i | . | . | -10.6 | . | -3.5 | 1.0 | .
O=Cc1ccccc1-c1cn(CCCOCc2ccccc2)nn1 | i | 2.0 | -2.9 | -5.4 | . | 5.2 | -1.8 | -8.9
CC(=O)NCCNc1nc(NCC2CC2)nc2cc(-c3ccccc3)sc12 | . | 9.4 | 6.0 | . | 9.8 | . | . | -7.2
N#Cc1ccc(OCC(=O)NCCc2ccccn2)cc1 | i | -4.8 | -2.3 | -8.2 | . | -10.1 | -5.2 | 0.8
O=C(C1CCCN(Cc2ccccc2)C1)N1CCCCC1 (configuration not stated) | i | 3.7 | 2.3 | -1.6 | 7.4 | 34.1 | 11.7 | -6.5
CCn1c(SCC(=O)OC(C)C)nnc1-c1cccc(Cl)c1 | i | 1.8 | -2.1 | -3.2 | . | -2.7 | -3.9 | .
c1ccc(OCCOCCSc2ncccn2)cc1 | i | 3.7 | 3.1 | -4.7 | . | -5.4 | -2.0 | .
COc1ccc(NC(=O)CC2SC(=NCC3CCCO3)NC2=O)c([N+](=O)[O-])c1 (configuration not stated) | i | 4.4 | 3.9 | -5.0 | 5.7 | -11.1 | 4.4 | .
Cc1cc(C)cc(NC(=O)CSc2ccccc2)c1 | i | 0.3 | 0.4 | 0.1 | 19.3 | -2.0 | -6.0 | .
CC(C)(C)c1ccc(OCC(=O)O)cc1 | i | 0.7 | -1.6 | 11.1 | -22.7 | 7.8&0.6 | 2.5&-6.4 | -12.1
Cc1cc(C)c[n+](-c2nc([O-])sc2C=O)c1 | i | -0.9 | 3.1 | -10.3 | . | 18.5 | 8.9 | -10.4
CCOC(=O)c1cc(-c2ccccc2)nn1-c1ccccn1 | i | 10.1 | 4.0 | -6.0 | -12.7 | -1.8 | -9.9 | -7.0
CCC(CO)Oc1cc(NCc2ccc(C(F)(F)F)cc2)c2ncn(C(C)C)c2c1 (configuration not stated) | . | -1.6 | 5.9 | . | 29.1 | . | . | -14.7
O=C(O)c1cc(-n2[nH]c(=O)c3ccccc3c2=O)ccc1Cl | i | 2.1 | 1.9 | -10.2 | -3.2 | 0.1 | -4.1 | 9.1
CCCc1nc2oc3c(NCCN4CCOCC4)ncnc3c2c2c1CCCC2 | i | 7.3 | 3.5 | 36.1 | -32.9 | 6.7 | -0.6 | 20.1
O=C(C1c2ccccc2Oc2ccccc21)N1CCN(c2ccc(Cl)cc2)CC1 | . | -27.3 | -25.6 | 2.6 | 27.8 | -8.7 | 5.1 | 8.7
CCCCOC(=O)COc1ccc(Cl)cc1Cl | . | -0.4 | 8.1 | -8.8 | . | . | . | -8.9
Oc1ccc(Nc2nc(-c3ccccc3O)nc3ccccc23)cc1 | i | -9.3 | -3.2 | 83.0* | 20.4 | -2.9 | -4.6 | -15.5
O=C(NCCN1CCOCC1)c1cc(-c2ccccc2Cl)on1 | i | 1.0 | -0.3 | -9.7 | 4.3 | 10.2 | 9.3 | -6.5
CCOc1ccc(OCC(=O)NCCS(=O)(=O)N2CCN(c3ccc(F)cc3)CC2)cc1 | i | 1.3 | -2.8 | -8.5 | 14.7 | 12.3 | -12.2 | -16.8
CC(NC(=O)NNC(N)=S)(C(F)(F)F)C(F)(F)F | i | 3.1 | 1.3 | -1.7 | -3.9 | -3.3 | -6.2 | -3.4
C[C@H](CO)N1C[C@H](C)[C@H](CN(C)S(=O)(=O)c2cccs2)Oc2ccc(NC(=O)Nc3ccc4c(c3)OCO4)cc2CC1=O | . | 0.4 | -10.1 | . | 98.9* | . | . | -4.3
COc1cc(/C=N/Nc2nc3ccccc3[nH]2)ccc1O | i | 13.9 | -3.1 | 8.0 | . | -5.2 | 5.7 | -25.6
CCOC(=O)C1CCCN(c2ncnc3c2[nH]c2cccc(OC)c23)C1 (configuration not stated) | i | . | . | . | . | 0.8 | -9.7 | .
C[C@@H]1C2CC(C/C2=N\NC(=O)c2ccncc2)C1(C)C (some centres not stated) | i | -0.8 | 5.6 | 11.0 | 3.9 | 13.8 | -1.0 | -4.9
CC1(C)CC2CC(C)(CN2CC(O)COc2ccccc2)C1 (configuration not stated) | i | 0.0 | 1.4 | 11.0 | 4.0 | -6.3 | 1.9 | .
COc1cccc(Oc2ccc(C(F)(F)F)cc2NC(=O)C2=COCCO2)c1 | i | 2.7 | 0.6 | 41.2 | 10.4 | -0.6 | -5.7 | -27.5
Cc1cc(=O)n2nc(N3CCCC(C(=O)NCCc4ccc(Cl)cc4)C3)sc2n1 (configuration not stated) | i | 1.4 | 1.3 | -9.1 | -2.8 | -7.0 | -9.5 | -11.9
O=C(Nc1ccc2ccccc2c1)/C(=C/c1cccc(Br)c1)NC(=O)c1ccco1 | i | -3.9 | -1.8 | 5.9 | 3.9 | 2.5 | -12.4 | .
Cc1cc(C)cc(OCC(=O)Nc2ccc3c(c2)C(=O)c2ccccc2C3=O)c1 | i | -1.2 | 3.7 | 28.0 | 17.8 | 8.4 | -1.2 | .
Cc1ccc(S(=O)(=O)N2CC3(C)CN(S(=O)(=O)c4ccc(C)cc4)CC(C)(C2)C3=O)cc1 | i | 6.6 | -0.7 | 4.7 | 41.9 | 1.5 | -12.7 | -6.1
CC(=O)C1CCC2C3CC(C)C4=CC(=O)CCC4(C)C3C(=O)CC12C (configuration not stated) | . | 1.8 | -2.1 | . | -38.4 | . | . | 1.8
CS(=O)(=O)Cc1ccc(C(=O)NCC2(N3CCCCC3)CCCCC2)cc1 | i | . | . | -4.0 | 9.2 | 3.5 | 2.5 | -0.1
COCCn1c(-c2ccccc2)csc1=Nc1cccnc1 | i | 7.9 | -5.9 | 11.8 | 9.3 | 0.8 | -8.2 | .
O=C(c1csc2c1CCCC2)N1CCN(c2cccc(C(F)(F)F)c2)CC1 | i | -2.0 | -3.1 | 26.5 | 18.6 | 6.6 | 1.7 | .
Cn1nnnc1CCOCCc1nnnn1C | i | -2.4 | -3.6 | -4.3 | . | -6.0 | -1.6 | -15.2
O=C(/C=C/NNC(=O)c1ccccc1)c1ccccc1 | i | -4.0 | -0.1 | -8.5 | . | 1.7 | -0.6 | -10.5
CC1CN(C(=O)COC(=O)c2ccc3ncsc3c2)CC(C)O1 (configuration not stated) | . | -4.4 | -0.8 | -12.9 | 12.0 | . | . | -17.6
CCCCn1c(=N)n(CC(=O)c2ccco2)c2ccccc21 | i | -2.3 | 3.8 | -2.0 | . | -6.2 | 1.1 | -8.8
CCC(=O)N1c2ccc(S(=O)(=O)CCC(=O)Nc3nccs3)cc2CC1C (configuration not stated) | i | -0.4 | -1.6 | -15.0 | . | 9.9 | 1.3 | -12.0
COc1cc(OC)cc(C(=O)NCCCCc2ccccc2)c1 | i | 1.5 | -7.7 | . | 1.0 | . | . | 8.5
Cc1ccc(NC(=O)CSc2nc3c(cc2C#N)C(=O)CCC3)cc1S(=O)(=O)N(C)C | i | 0.5 | -11.9 | 6.1 | . | -5.9 | -5.2 | -17.4
COc1ccc2[nH]c(=O)c(CN(C(C)=O)c3cccc(C)c3)cc2c1 | i | -3.5 | 2.3 | -14.8 | -130.6 | 4.6 | -4.6 | -6.6
Cc1nc2nc(C)c(CCC(=O)N3CCc4ccccc43)c(C)n2n1 | i | 0.7 | 0.7 | -6.7 | 12.7 | -4.9 | 4.5 | -17.9

Compounds above containing a cyano group:
SMILES | Rce1 inh | MT1-MMP act inh | MT1-MMP act inh RFP | CSC inhib | HIV Env fusion | PABP FP inh | eIF4H inh | Yeast UUG start
N#Cc1ccc(OCC(=O)NCCc2ccccn2)cc1 | i | -4.8 | -2.3 | -8.2 | . | -10.1 | -5.2 | 0.8
Cc1ccc(NC(=O)CSc2nc3c(cc2C#N)C(=O)CCC3)cc1S(=O)(=O)N(C)C | i | 0.5 | -11.9 | 6.1 | . | -5.9 | -5.2 | -17.4

These rows are one share of the data; count on the stated rates, not on these rows.
